FGF22 binding: binders of human FGF22 protein, primary screen, FGF22 synaptogenesis inhibitor project, biophysical, thermal shift, single point; recombinant FGF22 thermal shift, SYPRO orange fluorescence; percent of sucrose octasulfate shift, DMSO zero; AID 651658, 2012; 340,000 tested, 1.5% active; calls only at 9.99 µM; Fibroblast growth factor 22 (Homo sapiens), Q9HCT0;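 active means melting point raised past a set limit in the mean and every replicate; three in four hits are not shown here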
UCH37 inh: inhibitors of human UCH37 deubiquitinase, primary screen, biochemical, Ub-AMC cleavage, fluorescence | purified proteasome/UCH37 | 330,000 tested, 0.33% active | inhibition, % (test concentration not listed);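 active means mean of two replicates above 20%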;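 further: 0% = compound-free wells with enzyme and 100% = wells lacking proteasome; stock transfer was 100 nL into about 20 µL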
Target sequence (Q9Y5K5 whole entry, looked up): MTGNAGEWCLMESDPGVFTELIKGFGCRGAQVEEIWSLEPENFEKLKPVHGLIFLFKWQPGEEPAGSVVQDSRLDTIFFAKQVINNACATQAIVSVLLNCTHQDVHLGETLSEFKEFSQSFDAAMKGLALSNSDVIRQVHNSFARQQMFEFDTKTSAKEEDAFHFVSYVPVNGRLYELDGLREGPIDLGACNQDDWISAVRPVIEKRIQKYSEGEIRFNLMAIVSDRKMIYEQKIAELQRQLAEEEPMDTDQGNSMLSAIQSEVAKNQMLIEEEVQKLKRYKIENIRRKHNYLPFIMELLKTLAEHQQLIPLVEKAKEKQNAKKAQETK
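Material: Human UCH37 enzyme supplied as purified proteasome complex | Schedule: 30 min preincubation with enzyme, 25 min cleavage at room temperature | Detection: AMC fluorescence 355/460 nm | Measure: % inhibition of Ub-AMC cleavage fluorescence | Controls: Wells without proteasome as full block, compound-free enzyme plus substrate as uninhibited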
HNF4A DNA FP: change in binding of human HNF4A to DNA, primary screen, biochemical, fluorescence polarization, FITC-DNA; 1 h; Hepatocyte nuclear factor 4-alpha (Homo sapiens), P41235; activity change, % at 10 µM; 360,000 tested, 0.3% active; AID 1224865, 2016; in the data active means activity change above about 30%, passing the limit was not always enough;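 further: controls were the assay level and a saturating level of protein; the project sought stronger binding though the title names inhibitors; some compounds called inactive have numbers as strong as hits; positive values seem to mean higher polarization but the record does not say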
Target sequence (P41235 whole entry, looked up): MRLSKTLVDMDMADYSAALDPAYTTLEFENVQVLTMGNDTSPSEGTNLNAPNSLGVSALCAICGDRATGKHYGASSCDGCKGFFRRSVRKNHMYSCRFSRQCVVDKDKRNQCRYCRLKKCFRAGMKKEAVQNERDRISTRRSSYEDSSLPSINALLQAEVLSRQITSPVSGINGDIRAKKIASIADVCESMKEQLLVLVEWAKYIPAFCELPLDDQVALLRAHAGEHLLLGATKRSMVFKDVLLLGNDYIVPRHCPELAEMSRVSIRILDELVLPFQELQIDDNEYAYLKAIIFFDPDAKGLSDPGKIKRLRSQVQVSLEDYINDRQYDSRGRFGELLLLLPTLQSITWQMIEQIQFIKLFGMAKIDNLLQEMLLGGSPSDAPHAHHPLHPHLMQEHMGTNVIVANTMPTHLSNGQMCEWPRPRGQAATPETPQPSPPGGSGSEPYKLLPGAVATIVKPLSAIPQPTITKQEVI
Ecoli growth: E. coli growth inhibition, primary screen, OD600; AID 1053175, 2014; Escherichia coli growth, 23 h; active compounds read low; 330,000 tested, 0.21% active; OD600 absorbance (concentration not given with the values);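 active means OD600 absorbance below the run mean of sample wells minus 3.6 SD, in any replicate, cut at about 0.56 in these data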;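 further: stock transfer was 300 nL into about 60 µL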
B2AR ag: beta2AR agonists driving receptor internalization, primary screen, cell-based, FAP fluorogen, flow cytometry. Beta-2 adrenergic receptor (Homo sapiens), P07550. Am2.2-beta2AR cells; reference of the scale not given here. response, % (concentration not given with the values). 340,000 tested, 0.43% active. AID 504454, 2011;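 active means response above a set limit, near 3 SD of response in nonfluorescent compounds, cut at about 42% in these data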;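 further: stock transfer was 100 nL into about 11 µL; a reference agonist was the positive control; negative values mostly stem from fluorescent compounds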
LANA-H2A inh: blockers of LANA interaction with H2A/H2B – biochemical, FP readout, HTS, primary screen; inhibition, % (test concentration not listed); AID 2629, 2010; 320,000 tested, 0.6% active; cell-free LANA-H2A/H2B peptide, fluorescence polarization; in the data active means inhibition mostly above about 10%, no sharp cut-off; inactive means mostly below about 6.7%;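 further: stock transfer was 7.5 nL into about 10 µL; 0% = median of vehicle wells and 100% = median of positive control wells; one replicate is shown; the record names a cut of 25% in any replicate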
ALR inh: inhibitors of human ALR sulfhydryl oxidase, primary screen, biochemical, H2O2 detection, HRP-luminol luminescence, single point. inhibition, % (no concentration beside the values). FAD-linked sulfhydryl oxidase ALR (Homo sapiens), P55789. purified ALR, DTT oxidation. 290,000 tested, 3.8% active;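 active means mean and each replicate at 75% or more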;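 further: stock transfer was 7.5 nL into about 7.5 µL; 0% = neutral wells and 100% = wells with inactivated enzyme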
Target sequence (P55789 whole entry, looked up): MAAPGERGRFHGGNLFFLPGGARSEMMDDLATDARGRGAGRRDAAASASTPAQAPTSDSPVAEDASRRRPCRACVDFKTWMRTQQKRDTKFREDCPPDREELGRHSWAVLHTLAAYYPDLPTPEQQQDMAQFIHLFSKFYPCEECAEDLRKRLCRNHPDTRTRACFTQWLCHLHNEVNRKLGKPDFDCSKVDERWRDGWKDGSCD
The depositor's hits bear a star; i = inactive; nt = not tested or not shown; & = joins results of further samples. An excerpt; rates above refer to the full screens.

SMILES | FGF22 binding | UCH37 inh | HNF4A DNA FP | Ecoli growth | B2AR ag | LANA-H2A inh | ALR inh
CCC(=NCCc1ccccc1)c1c(O)n(C)c(=O)n(C)c1=O | i | 5.5 | 3.3 | 0.66 | 6 | -2.3 | 15
COc1ccc(CC(=O)N(CCN(C)C)CC2CCCN(Cc3ccccc3F)C2)cc1 (stereo not given) | i | 1.7 | 0.4 | 0.65 | 8 | 1.3 | nt
CNC(=O)Oc1cccc2c1OC(C)(C)O2 | i | -0.7 | 2.2 | 0.63 | 0 | nt | nt
CC1CN=C(NC(C)c2ccccc2)S1 (stereo not given) | i | 2.7 | 3.9 | 0.69 | 3 | 7.6 | nt
CC(=O)Nc1ccccc1OP1(=O)COc2ccccc2OC1 | nt | -1.2 | 5.9 | 0.67 | 3 | -7.8 | 81*
CC(=O)OC1CCC2(C)C(CC(=O)C3C2CCC2(C)C(OC(C)=O)CCC32)C1 (stereo not given) | i | nt | 0.0 | nt | 28 | nt | nt
CCc1c(C)nc(N)nc1N1N=C1SCC(N)=O | nt | 2.4 | -3.8 | 0.64 | -2 | -35 | 0
CC(=O)N(C)CC#CCN1CCCC(CO)C1 (stereo not given) | i | 3.4 | -1.3 | 0.66 | 6 | 0.3 | 0
c1cncc(CNCCc2c[nH]c3ccccc23)c1 | i | 2.1 | 4.4 | 0.69 | -4 | 2.4 | 10
CNC(=O)OCCc1n(C)cc[n+]1C | i | 2.2 | -0.3 | 0.67 | 11 | 3.9 | -15
CCOc1cc2c(cc1OCC)-n1cccc1C(c1ccc(OC)c(OC)c1)NC2 (stereo not given) | i | 2.9 | 3.7 | 0.68 | 5 | 2.3 | -12
CCCCCc1nc2ccccc2c(=O)n1-c1ccccc1[N+](=O)[O-] | i | -1.8 | 1.3 | 0.71 | -7 | -4.7 | -2
Clc1ccc(NC2=NCCCS2)cc1Cl | i | 4.7 | 2.6 | 0.58 | -3 | -6.3 | 0
COC(C)(C)CCCC(C)C/C=C/C(C)=C/C(=O)OC(C)C (stereo not given) | i | -0.7 | -1.2 | 0.66 | -2 | -1.3 | -4
COC(=O)C(O)(c1ccc(NC(=O)c2cccs2)cc1)C(F)(F)F (stereo not given) | i | 6.1 | -0.7 | 0.63 | -1 | -0.3 | -3
Cn1c(O)c(/C=N/c2ncccn2)c(=O)n(C)c1=O | nt | 11 | -0.2 | 0.63 | 15 | -6.8 | 2
C=CCn1c(O)c(/C(C)=N/N2CCCCCC2)c(=O)[nH]c1=O | i | 6.4 | -0.9 | 0.68 | -6 | 0.3 | 32
COC(=O)C1=C(c2cc3ccccc3s2)C[C@@H]2CC[C@H]1N2C(=O)N1CCCC1 | i | -1.7 | 2.7 | nt | -11 | 1.8 | -39
O=C(O)c1ccccc1NC(=O)N1C[C@H]2C[C@@H](C1)c1cccc(=O)n1C2 | i | -1.7 | 1.7 | 0.68 | -1 | -6.7 | -4
COC(=O)C1=C(c2cc3ccccc3s2)C[C@@H]2CC[C@H]1N2C(=O)NCc1ccc(C(F)(F)F)cc1 | i | 0.0 | -0.4 | nt | 74* | -3.4 | 2
CC1CC(NC(=O)C2C3CCC(O3)C2C(=O)O)CC(C)(C)C1 (stereo not given) | nt | 0.9 | -2.7 | 0.68 | 2 | 5.1 | 0
CNCC(O)c1cccc(OC(=O)c2ccccc2C)c1 (stereo not given) | nt | nt | 1.7 | 0.63 | -7 | 0.9 | -3
O=[N+]([O-])c1ccc(C2[C@H]3C(c4ccccc4)=NC4(CCCCC4)N23)cc1 (stereo not given in full) | i | 3.5 | 1.7 | 0.69 | 1 | 4.9 | -3
O=C1NC(=S)N(c2ccc(Cl)cc2)C(=O)/C1=C/N1CCN(C(=O)c2ccco2)CC1 | nt | 5.3 | 16 | nt | 1 | 4.5 | 97*
O=c1[nH]c(=S)[nH]c(O)c1C(c1ccccn1)c1c(O)[nH]c(=S)[nH]c1=O | i | 3.2 | -0.7 | 0.69 | -1 | -4.6 | 3
Cc1ccc(-n2c(O)c(C=NCc3ccccn3)c(=O)[nH]c2=S)cc1 | i | 9.2 | 3.7 | 0.65 | 0 | -14 | -9
CN(C)C(=O)Oc1ccc(Cl)c2cccnc12 | i | -11 | 3.1 | 0.63 | 0 | -1.7 | -6
Cn1c(=O)oc(=O)c2ccccc21 | i | -282 | 0.2 | 0.66 | 0 | nt | nt
COc1cc2nc(N3CCN(C(=O)C4CCCO4)CC3)nc(N)c2cc1OC (stereo not given) | i | -117&-92 | 2.5&-2.2 | 0.68&0.7&0.69 | -2&-9 | 3.8&-8.2&-15 | -20&-1
N#Cc1ccccc1Cn1cc(C(=O)C2CC2)c2ccccc21 | nt | 2.7 | -0.9 | 0.67 | -9 | -2.4 | -9
O=[N+]([O-])[N-][n+]1cnn(Cc2ccccc2)c1 | i | 1.6 | -0.1 | 0.69 | -1 | -1.1 | 8
Cc1cccc(N2C(=O)NC(=O)/C(=C\c3ccc(N4CCOCC4)cc3)C2=O)c1 | i | 3.8 | 0.4 | 0.66 | -2 | -3.5 | 27
CN(C)C(CNC(=O)Cc1ccc(Br)cc1)c1ccccc1 (stereo not given) | i | 0.4 | 1.8 | 0.66 | 0 | -5.8 | 0
ClC(Cl)(Cl)c1ccccc1 | i | 1.8 | 0.0 | 0.69 | 0 | -15 | -11
COC(=O)C1=C(c2ccc(S(C)(=O)=O)cc2)C[C@@H]2CC[C@H]1N2C(=O)NC(C)C | i | 5.9 | 2.0 | nt | 8 | 3.1 | nt
CCC(=NCc1ccco1)c1c(O)n(-c2ccc(OC)cc2)c(=O)[nH]c1=O | nt | 0.2 | 1.8 | 0.7 | 4 | -5.1 | -2
CC1CCCN(c2ccc(C(=O)N3CCC4(CC3)OCCO4)cc2[N+](=O)[O-])C1 (stereo not given) | i | nt | -2.5 | nt | -12 | -4.0 | -27
Cn1cccc1/C=C1/C(=O)NC(=S)N(Cc2ccc(F)cc2)C1=O | i | 5.8 | -26 | 0.69 | 60* | 7.2 | nt
CCN(CC)C(=O)N[C@H]1C[C@@H]2c3cccc4[nH]cc(c34)C[C@H]2N(C)C1 | i | 0.3 | -11 | nt | -4 | -0.7 | nt
Cc1cc(Cl)ccc1OCCCC(=O)NCc1cccs1 | nt | 3.9 | 3.0 | 0.73 | -7 | -5.2 | 1
O=c1cccc2n1C[C@@H]1C[C@@H]2CN(CC(O)c2ccc([N+](=O)[O-])cc2)C1 (stereo not given in full) | i | 1.4 | -1.3 | 0.69 | 2 | 2.8 | -12
OC(CNC1CCCCCCC1)c1ccccc1 (stereo not given) | nt | 2.7 | nt | 0.65 | nt | 0.2 | -3
Cc1ccc(-c2nc3ccccc3c(=O)n2-c2cccc(O)c2)cc1 | i | 0.4 | -5.2 | 0.71 | -14 | 9.6 | 9
CC(C)N1CCN(Cc2ccccc2C(F)(F)F)CC1CCO (stereo not given) | i | 4.4 | -1.7 | 0.67 | -4 | -7.8 | 1
O=C1NC(=S)NC(=O)C1=Cc1ccc(Br)s1 | i | 4.2 | -8.7 | 0.66 | 54* | -0.7 | 64
Cn1cc(NC(=O)CCl)cn1 | i | 6.5 | 0.6 | 0.72 | 2 | 4.1 | -4
Cn1c(O)c(/C=C2/C=CC=N2)c(=O)[nH]c1=O | i | 1.3 | 4.3 | 0.69 | -5 | -2.5 | -2
CN1CCCC(C(O)(c2ccccc2)c2ccccc2)C1 (stereo not given) | i | 2.5 | -1.9 | 0.67 | 8 | -2.3 | -18
CC1CN=C(NCc2ccncc2)S1 (stereo not given) | nt | 1.1 | 0.0 | 0.67 | 2 | 3.5 | -13
COCCn1cc(C(=O)N2CCC3(CC2)OCCO3)c2c3ccccc3n(C)c2c1=O | nt | -126 | -2.5 | 0.68 | 4 | 0.8 | -1

Next part
SMILES | FGF22 binding | UCH37 inh | HNF4A DNA FP | Ecoli growth | B2AR ag | LANA-H2A inh | ALR inh
COc1cc(/C=C2/C(=O)NC(=O)N(c3ccc(C)cc3)C2=O)cc(OC)c1OC | i | 1.3 | 1.4 | 0.69 | -2 | -0.8 | 18
CN1CCN(c2ccc([N+](=O)[O-])c(Sc3nncn3C)c2)CC1 | i | 7.1 | -3.0 | 0.69 | -5 | -0.9 | -13
COC(=O)C1=C(c2ccccc2OCc2ccccc2)C[C@@H]2CC[C@H]1N2C(=O)NCc1cccc(F)c1 | i | 1.3 | -1.8 | 0.8 | 4 | 0.6 | -6
CC(Cc1ccccc1Sc1ccccc1O)N(C)C (stereo not given) | nt | 5.7 | -2.4 | 0.69 | 8 | -2.7 | 98*
CCOC(=O)[C@]12Cc3c(cc(OC)c(OC)c3OC)[C@H]1N(Cc1ccccc1)C(=O)c1ccccc12 | i | 0.2 | -3.0 | nt | 5 | nt | nt
CC(=O)Nc1ccccc1C(=O)C(=O)Nc1cccc(C(=O)N2CCC3(CC2)OCCO3)c1 | i | 0.4 | -4.8 | 0.7 | 3 | -3.1 | -21
Cc1ccc(NC(=O)[C@@H](NC(=O)N2C[C@H]3C[C@@H](C2)c2cccc(=O)n2C3)C(C)C)cc1 | i | 1.2 | 1.4 | 0.7 | -5 | 5.1 | -8
COC(=O)Cn1cc(C(=O)c2ccccc2F)c2ccccc21 | i | 7.8 | 0.5 | 0.62 | 20 | -2.3 | -8
c1ccc2c(c1)-c1cccc3cccc-2c13 | i | -88 | -4.5 | 0.71 | 1 | -11 | -6
Cc1ccsc1-c1nc(CSCC(=O)N2CCC3(CC2)OCCO3)c(C)o1 | nt | -3.9 | 2.2 | 0.73 | -14 | 0.1 | 99*
O=C(Cc1c(Cl)cccc1Cl)N1CCN(Cc2ccccc2)CC1 | i | 8.4 | 3.7 | 0.61 | 8 | 1.0 | 4
O=[N+]([O-])c1ccc(C[n+]2c(-c3ccccc3)cc(-c3ccccc3)cc2-c2ccccc2)cc1 | i | -12 | 3.2 | 0.69 | -19 | -0.3 | -5
Cc1cccc(OC(=O)N2CCOCC2)c1 | nt | 3.3 | -3.1 | 0.66 | -8 | 1.7 | -5
Cc1cccc(OCC(=O)N2CCN(Cc3cccnc3)CC2)c1 | i | -0.2 | 1.5 | 0.69 | -1 | -0.1 | 29
CCOc1ccc(-n2c(O)c(C=Nc3ccc(N4CCOCC4)cc3)c(=O)[nH]c2=O)cc1 | nt | 45* | -3.1 | 0.66 | -1 | -2.4 | 1
COc1ccccc1OCCCn1cc(C(=O)C2CC2)c2ccccc21 | i | 0.6 | 3.7 | 0.65 | 6 | 2.9 | nt
CC[C@@H](C(N)=O)N1CCCC1=O | nt | -0.6 | nt | nt | nt | 0.1 | -1

Part of the list above, showing only B2AR ag, LANA-H2A inh and Ecoli growth.
| Structure | B2AR ag | LANA-H2A inh | Ecoli growth |
| --- | --- | --- | --- |
| CC[C@@H](C(N)=O)N1CCCC1=O | nt | 0.1 | nt |
| Cc1ccc(-c2nc3ccccc3c(=O)n2-c2cccc(O)c2)cc1 | -14 | 9.6 | 0.71 |
| Cc1ccc(-n2c(O)c(C=NCc3ccccn3)c(=O)[nH]c2=S)cc1 | 0 | -14 | 0.65 |
| COC(=O)C1=C(c2ccc(S(C)(=O)=O)cc2)C[C@@H]2CC[C@H]1N2C(=O)NC(C)C | 8 | 3.1 | nt |
